GLA inh pH 4.5 – inhibitors of human alpha-galactosidase A at pH 4.5; 230,000 tested, under 10 active; P06280; purified enzyme, 4-MU-alpha-Gal fluorescence, pH 4.5; activity change, negative = inhibition, % at 105 µM; inconclusive = small, poorly fitted or top-dose-only inhibition, or a rising curve; inactive = flat fitted curve, though single readings scatter; no compound was filed as active;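 also: 0% = full activity with enzyme and -100% = basal without enzyme; dose as in the result columns while the protocol names 77 µM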
Target sequence (P06280 whole entry, looked up): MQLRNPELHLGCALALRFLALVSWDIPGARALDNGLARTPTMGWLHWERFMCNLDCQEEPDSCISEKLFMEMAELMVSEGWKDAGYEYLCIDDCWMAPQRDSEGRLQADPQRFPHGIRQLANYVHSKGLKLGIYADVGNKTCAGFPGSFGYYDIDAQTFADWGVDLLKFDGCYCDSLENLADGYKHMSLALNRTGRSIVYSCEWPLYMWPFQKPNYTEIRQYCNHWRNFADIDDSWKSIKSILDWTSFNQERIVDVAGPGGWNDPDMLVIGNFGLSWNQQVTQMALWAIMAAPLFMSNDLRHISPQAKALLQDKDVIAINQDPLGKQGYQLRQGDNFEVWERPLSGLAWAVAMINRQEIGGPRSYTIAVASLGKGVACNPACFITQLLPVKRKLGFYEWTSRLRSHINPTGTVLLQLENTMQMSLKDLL
Rango-impB inh – Rango-importin beta binding inhibition | Rango CFP/YFP FRET sensor + importin beta, 45 min | Potency, µM (series often up to 92.2 µM), for the others: top-dose inhibition of complex formation | 340,000 tested, 0.031% active | AID 540263; active = rising FRET ratio curve, often small or poorly fitted; inconclusive = mostly compound fluorescence or quenching in the first reads; inactive = flat curves in all reads;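 also: potency is read from the fitted curve at half-maximal effect; 0% = DMSO wells and 100% = buffer wells lacking importin beta; nearly all actives have a fitted effect of over 15% in size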
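FRET biosensor (snurportin 1 IBB flanked by EYFP and cerulean), 50 nM, with compound 5 min, then 0.125 microM importin beta in PBS, 1 mM DTT, 0.02% Tween-20, 0.1% BSA. CFP/YFP ratio read after 45 min at room temperature; pre-read flags interference.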
miR-21 reporter – miR-21 reporter, rising signal. HeLa miR-21 FLuc reporter, luciferase, 48 h. Potency, µM (series often up to 38.3 µM), inactives show at the top dose reporter change, positive = more light. 340,000 tested, under 10 active. AID 2288; active = well fitted rising curve with a large enough effect; inconclusive = small, poorly fitted or top-dose-only effect; inactive = no such curve, though single readings can be large or run the other way;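 also: % of control where 0% means no effect; miR-21 action dims this reporter so a rising signal means less miR-21 action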
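Using DMEM plus 10% FBS, HeLa miR-21-FLuc cells are incubated with test compounds (final up to about 40uM) for 48 hours; firefly luciferase signal is then imaged following reagent-mediated lysis.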
Rango dissoc inh – prevents RanGTP from dissociating the Rango-importin beta complex | O95149+P62826 | Biochemical FRET Rango-importin beta, RanGTP-induced dissociation | Potency, µM (series often up to 46.1 µM), inactives show top-dose activity change, negative = inhibition | 340,000 tested, 0.071% active | AID 540253; active means falling FRET ratio curve, often poorly fitted, with flat reads before Ran was added; inconclusive means other falling curves, or compound fluorescence or quenching; inactive means flat or rising ratio curve;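 also: potency is read from the fitted curve at half-maximal effect; % of control where 0% means no effect; nearly all actives have a fitted effect of over 45% in size; -100% = wells without RanGTP and RCC1; the record marks most hits as doubtful in a second field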
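Rango (0.1 uM)–importin beta (0.25 uM) complex; RanGTP-RCC1 trigger; 45 min RT; CFP/YFP FRET read.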
Numbers without * were called inactive; ? = inconclusive; . = not tested or not shown.

Rango dissoc inh | Rango-impB inh | GLA inh pH 4.5 | miR-21 reporter | Structure
0% | 1.5% | . | 0% | COc1ccc(CC(=O)OCC(=O)N2CCCC(C)C2)cc1 (stereo not given)
2% | 0.3% | 2 | -5% | CSc1nc2c(ccc3ccccc32)o1
-2% | 0.6% | . | . | O=C(NC1CCCCC1)c1ccc2c(c1)S(=O)(=O)c1ccccc1C2=O
11% | 0.0% | . | 2% | Cc1cc2nsnc2c(S(=O)(=O)N2CCN(C)CC2)c1C
-2% | 1.4% | -19 | 1% | O=C(C1CCC(CNc2c(N3CCCC3)c(=O)c2=O)CC1)N1CCc2ccccc21 (stereo not given)
-10% | -3.9% | 5 | -2% | Cc1onc(-c2ccccc2)c1C(=O)NCC1CCN(C(=O)c2c(-c3ccccc3)noc2C)CC1
17% | -5.9% | 5 | 3% | Cc1ccc(CN2CCN(C3CSCCSC3)CC2CCO)cc1 (stereo not given)
7% | 2.8% | 1 | 0% | O=c1c2ccccc2n2c(-c3ccc(C(F)(F)F)cc3)nnc2n1Cc1ccccc1
15% | -0.2% | -5 | 2% | CC(C)(C)NC(=O)N1CCCC(C(=O)c2cccc(Cl)c2)C1 (stereo not given)
-3% | -1.9% | . | -6% | COc1ccc(CN2CCN(Cc3ccc(C)cc3)CC2)c(OC)c1

Fetched one by one from above:
Rango dissoc inh | Rango-impB inh | GLA inh pH 4.5 | miR-21 reporter | Structure
-10% | -3.9% | 5 | -2% | Cc1onc(-c2ccccc2)c1C(=O)NCC1CCN(C(=O)c2c(-c3ccccc3)noc2C)CC1
0% | 1.5% | . | 0% | COc1ccc(CC(=O)OCC(=O)N2CCCC(C)C2)cc1 (stereo not given)
-3% | -1.9% | . | -6% | COc1ccc(CN2CCN(Cc3ccc(C)cc3)CC2)c(OC)c1
2% | 0.3% | 2 | -5% | CSc1nc2c(ccc3ccccc32)o1

(cont.)
Rango dissoc inh | Rango-impB inh | GLA inh pH 4.5 | miR-21 reporter | Structure
24% | 0.3% | . | -1% | Cn1c(-c2cccc(Br)c2)cnc1NCc1ccccc1O
18% | -2.0% | -2 | 0% | CN(C(=O)COC(=O)c1ccc2c(c1)OCO2)C1CCS(=O)(=O)C1 (stereo not given)
30% | -0.6% | . | 1% | CC(=O)c1[nH]c(C)c(C(=O)N2CCCC(Nc3cccc(F)c3)C2)c1C (stereo not given)
-26% | ? | -4 | -6% | CC(=O)C1=C(C)NC(SCSc2ccccc2)=C(C#N)C1c1cccnc1 (stereo not given)
8% | 5.2% | . | . | O=C(Nc1ccc(F)c(F)c1)C1=COCCO1
-8% | 0.3% | . | 5% | COc1c(C)cc(C(=O)C2CCCN(C(=O)c3cc(C4CC4)[nH]n3)C2)cc1C (stereo not given)
5% | 0.7% | . | -70% | Cc1cccc2c1-c1sc(C(=O)N3CCCCC3)cc1CO2
-3% | 1.2% | . | 12% | CCOC(=O)N1CCC(N2Cc3cccc(C(=O)Nc4c(C)cccc4CC)c3C2=O)CC1
1% | -4.6% | . | 1% | COc1ccc(NC(=O)NNC(=O)C(C)Oc2ccc3ccccc3c2)cc1 (stereo not given)
-10% | -0.1% | . | . | O=C(CN1C(=O)NC(c2ccccc2)(c2ccccc2)C1=O)Nc1ccc(N2CCOCC2)cc1
-4% | -0.2% | . | . | COc1cc(C(=O)OC(C)C(=O)Nc2ccc3c(c2)OCCO3)cc(OC)c1OC (stereo not given)
14% | 1.1% | 2 | -4% | Cc1cc(=O)n2[nH]c(-c3ccc(F)cc3)nc2n1
3% | 3.0% | . | 11% | Cc1ccsc1/C=N/Nc1ccc(C(=O)O)cc1
-9% | ? | -19 | -2% | O=C(Nc1ccsc1C(=O)N1CCCC1)c1ccccc1
-4% | -2.4% | -7 | -3% | CCCCN(CC)C(=O)Cn1ncc2c1-c1cc(C)ccc1OC2
-3% | -1.6% | 0 | -2% | CCn1c(SCC(=O)N2CCCC2)nnc1-c1ccc(S(=O)(=O)N2CCCCCC2)cc1
-5% | ? | 6 | -2% | Cc1cc(C)n(-c2ccc(Cl)c(C(=O)Nc3ccc(-c4nnc5n4CCCCC5)cc3)n2)n1
-2% | -0.9% | -14 | -10% | NN(CCO)C(=S)Nc1ccc(Cl)cc1
2% | 0.1% | -21 | -6% | O=C(NCCCCC(NC(=O)C1CCCCC1)C(=O)O)c1ccccc1 (stereo not given)
2% | 3.7% | 2 | 0% | CCOC(=O)C1(CCCc2ccccc2)CCN(Cc2ccn[nH]2)CC1
14% | 4.1% | . | . | CC(C(=O)Nc1ccon1)N1C(=O)c2ccccc2S1(=O)=O (stereo not given)
7% | 0.2% | -1 | -13% | Cc1ccc(CNC(=O)CCc2ccccc2)cc1
11% | -0.1% | 7 | 4% | CCN(CC)C1CCS(=O)(=O)C1 (stereo not given)
-13% | -1.2% | . | -3% | O=C(Nc1ccc(F)cc1F)c1ccc2c(c1)[nH]c(=O)n2Cc1ccc(F)cc1
1% | 0.1% | -7 | -4% | COCCCNC(=O)C1CCCN(S(=O)(=O)c2ccc(C)cc2)C1 (stereo not given)
14% | -4.3% | . | . | O=C(Nc1cc(S(=O)(=O)N2CCOCC2)ccc1N1CCCC1)c1cc(F)c(F)cc1Cl
7% | 0.5% | . | -5% | CCc1sc(C(=O)NCCc2ccc(S(N)(=O)=O)cc2)cc1C
1% | 1.8% | -9 | -1% | CCOc1ccc(/C=N/NC(=O)C(C)N(c2ccc(OC)cc2)S(C)(=O)=O)cc1OCC (stereo not given)
32% | ? | -8 | -7% | Cc1ccc(N2C(=O)CC(Sc3ccccc3C(=O)O)C2=O)cc1 (stereo not given)
-2% | 1.2% | 0 | -68% | CCCc1nn(C)c(C(=O)Nc2cccc(C)c2)c1Cl
-3% | 1.8% | 0 | -38% | O=C(CC(SCc1ccco1)c1ccc(O)cc1)c1cccs1 (stereo not given)
-18% | 2.3% | -20 | 0% | CC(=O)c1ccc(-c2ccccc2OC(F)(F)F)o1
-9% | -0.1% | -2 | -9% | CCOC(=O)c1ccccc1NC(=O)c1cncc(Br)c1
2% | ? | . | . | CCCCn1c(N)c(N(CCOC)C(=O)c2ccc(Br)s2)c(=O)[nH]c1=O
-5% | ? | -8 | -19% | COc1ccc(N2CC(O)=C(c3nc4ccccc4s3)C2=N)c(OC)c1
14% | -0.8% | . | . | CSc1ncccc1C(=O)OCC(=O)Nc1ccc(N2CCOCC2)cc1
. | . | -3 | -2% | CCn1c2ccccc2n2c(=O)c(=O)n(CC(=O)N3CCN(c4ccccc4OC)CC3)nc12
-12% | 3.9% | . | 0% | COc1ccccc1CCC(=O)OCC(=O)Nc1ccc(C(N)=O)cc1
-10% | 2.0% | 2 | -14% | CC(=O)/C(=C/N(C)C)C(=O)Nc1ccc(Cl)cc1Cl
-11% | 2.7% | -9 | 1% | CN(C)S(=O)(=O)c1cc(NC(=O)COC(=O)C2COc3ccccc3O2)ccc1Cl (stereo not given)
1% | 1.7% | 3 | -14% | CCOc1ccc(C(=O)NC(=S)N2CCN(c3ccc(C(F)(F)F)cc3[N+](=O)[O-])CC2)cc1
36% | 0.8% | 2 | -8% | CCOc1ccccc1OCCOc1ccccc1OC(C)C
-9% | -1.1% | -3 | 0% | Cc1ccc(C(=O)NCCn2cc(SCC(=O)N3CCOCC3)c3ccccc32)cc1
-19% | 0.7% | 2 | -11% | Cc1ccc2cc3cc(C(=O)NCc4ccco4)oc3nc2c1
-14% | 3.2% | 1 | -15% | CCOc1ccccc1C1CC(c2ccc(F)cc2)Nc2nc(N)nn21 (stereo not given)
-1% | 0.4% | . | -4% | C=CCN1C(=NC(=O)COc2ccccc2)SC2CS(=O)(=O)CC21 (stereo not given)
1% | -0.9% | . | -16% | CCN(CC)c1ccc(NC(=O)c2c(C)noc2C)cc1
-6% | -0.7% | -6 | -9% | Cc1ccc(-c2cnc3n2CCCCC3)cc1
20% | -1.0% | . | -38% | O=C(Nc1ccc(N2CCOCC2)cc1)c1ccc(Br)o1
-1% | 0.5% | . | 0% | CSc1ncccc1C(=O)N1CCCC(N2CCN(c3ccccc3F)CC2)C1 (stereo not given)

Later entries.
Rango dissoc inh | Rango-impB inh | GLA inh pH 4.5 | miR-21 reporter | Structure
7% | 6.3% | 0 | -4% | Cn1c(=O)cc(SCC(=O)NCCCN2CCOCC2)c2ccccc21
1% | -3.9% | -9 | -16% | Cc1ccccc1S(=O)(=O)NCc1ccc(N2CCN(C)CC2)cc1
7% | -0.8% | 0 | -6% | O=C(NCc1ccc2c(c1)OCO2)c1cccc(S(=O)(=O)N2CCCCC2)c1
2% | ? | . | -4% | O=C(NCCNC(=O)c1ccccn1)c1ccc(Cl)cc1
-6% | -0.7% | 11 | -28% | Cc1ccc(N=C(NO)c2nonc2N)cc1
2% | -1.5% | -4 | -13% | CC(C)c1ccc(NC(=O)COC(=O)/C=C/c2cccc([N+](=O)[O-])c2)cc1
16% | -0.2% | 3 | -4% | CN(C(=O)c1ccc2c(c1)OCO2)C1(C(=O)NC2CCCCC2)CCCCC1
14% | -4.9% | . | -5% | O=C(Nc1ccnn1C1CCN(Cc2ccccc2)CC1)C1CCCC1
-6% | -5.4% | . | . | COc1cc(Cl)c(NC2=CC(=O)C(=O)c3ccccc32)c(OC)c1
11% | 1.1% | -1 | 0% | Cc1ccc(CC(=O)Nc2ccc([N+](=O)[O-])cc2C)cc1
-8% | 2.2% | 0 | 25% | COc1cc(C(=O)N2CCN(c3cccc(C)c3C)CC2)cc(OC)c1OC
49% | -4.3% | . | . | COc1cc2c(c(OC)c1OC)C(=O)CO2
-17% | ? | ? | -34% | Cn1cccc1/C=C1\SC(=S)N(Nc2ccccc2)C1=O
24% | 3.7% | . | ? | O=C(CCCN1C(=O)/C(=C/c2ccccc2)SC1=S)N1CCOCC1
-17% | 0.4% | . | . | CCCCn1c(N)c(N(CCOC)C(=O)c2ccc(S(=O)(=O)N(CC)c3ccccc3)cc2)c(=O)[nH]c1=O
0% | 0.0% | 0 | -27% | COc1ccc(Cc2nc(-c3ccc(Cl)cc3)no2)cc1
-1% | -4.5% | 0 | 8% | COc1ccccc1CN1C[C@@H]2C[C@@H](c3ccc(C)c(C)c3)N3CCC[C@@]23C1=O
-6% | -0.4% | 0 | 4% | CCOC(=O)CCNC(=O)Nc1ccc2nc(C)n(Cc3ccc(Cl)cc3)c(=O)c2c1
6% | 1.9% | 6 | 0% | COc1ccc(/C=N/N=C2/NC(=O)CC(C(=O)O)S2)cc1 (stereo not given)
-14% | 0.1% | -20 | -4% | Cc1cccc(CN2C[C@]34C=C[C@@H](C[C@@H]3S2(=O)=O)O4)c1
3% | -7.2% | 8 | 0% | CC1(C)C(=O)OC(c2c3ccccc3cc3ccccc23)C(C)(C)C1=O (stereo not given)
18% | 1.8% | -1 | 5% | CCN1C(=O)CC(C(=O)NCCc2ccc(S(N)(=O)=O)cc2)SC1=Nc1ccc(OC)cc1 (stereo not given)
-26% | 4.0% | -29 | 0% | OCCCc1cn(-c2ccccc2)c2ccccc12
5% | 0.4% | -2 | -13% | CC(=O)Nc1ccc(OCC(O)CN2CCN(c3ccccc3Cl)CC2)cc1 (stereo not given)
-8% | -0.1% | -2 | 1% | COc1cc(C(=O)O)cc(Br)c1OC1CCCC1
12% | 5.8% | 3 | -33% | CCOP(=O)(OCC)c1nc(-c2ccc(Cl)cc2Cl)oc1N1CCOCC1
? | -2.3% | . | . | CCCCOc1ccc(C(=O)NCC(=O)NNC(=O)C2COc3ccccc3O2)cc1 (stereo not given)
-8% | -0.1% | 4 | 0% | CCN1CC(CN(C)Cc2nc(COc3ccccc3)no2)CC1=O (stereo not given)
0% | -1.2% | . | . | O=C(COc1ccc(Br)cc1)Nc1ccc(N2CCOCC2)cc1N1CCOCC1
-5% | 0.7% | -4 | -5% | Cc1ccc(SCC(=O)Nc2ccc(S(=O)(=O)Nc3nccs3)cc2)cc1
0% | -1.0% | 3 | -1% | CN(C)S(=O)(=O)Oc1ccsc1C(=O)Nc1ccc(C(F)(F)F)cc1
4% | 3.1% | 10 | -7% | COc1ccccc1NC(=O)c1cccnc1
1% | -3.8% | -2 | -3% | Cc1nn(C(C)C(=O)N2CCc3ccccc3C2)c(=O)c2cc3occc3n12 (stereo not given)

3 compounds from above, sorted by the number in miR-21 reporter, rising.
Rango dissoc inh | Rango-impB inh | GLA inh pH 4.5 | miR-21 reporter | Structure
1% | -3.8% | -2 | -3% | Cc1nn(C(C)C(=O)N2CCc3ccccc3C2)c(=O)c2cc3occc3n12 (stereo not given)
-26% | 4.0% | -29 | 0% | OCCCc1cn(-c2ccccc2)c2ccccc12
-8% | -0.1% | -2 | 1% | COc1cc(C(=O)O)cc(Br)c1OC1CCCC1

Only part of the results is shown; the hit share may differ from the screen's.
